Assay outcomes deposited in PubChem by Fisher Drug Discovery Resource Center.
NPYLR7 agonist: mosquito NPYLR7 agonism. HEK293T NPYLR7/Galpha15, GCaMP6s calcium fluorescence. activation, % at 10 µM. 270,000 compounds, 0.15% hits. AID 1259423; in the data active means activation above about 40%;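 further: 0% = vehicle and 100% = reference agonist at the receptor; some compounds past the cut are filed as inactive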
NPYLR7 agonist max-min: second read-out of NPYLR7 agonist, no call of its own (marks repeat the call); activation, %; measured here: Max-Min RFU normalised activation; some inactives read as strong as hits;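 span of the calcium signal over five minutes; 0% = vehicle and 100% = native peptide agonist; compound fluorescence can raise it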
* hit, by the source's call; & = joins results of further samples.

SMILES	NPYLR7 agonist	NPYLR7 agonist max-min
O=C(C1CCCC1)N1CCCC(N2CCN(CCOc3ccccc3)CC2)C1 (stereo not drawn)	-5	5
CN1C(=O)C2(CCCN(C(=O)CCCn3cccn3)C2)c2ccccc21 (stereo not drawn)	2	1
O=C(c1ccc(F)cc1)N(Cc1ccco1)Cc1nccn1Cc1ccccc1Cl	-2	8
CCOc1ncccc1CN1CCCC(C(=O)NCCCO)C1 (stereo not drawn)	7	8
CCCn1c(C)c(CC(=O)N(C)Cc2nonc2C)c2c1CC(C)(C)CC2=O	4	-2
Cc1cc(NC(=O)CSc2ccc3nnc(CCNC(=O)c4ccccc4)n3n2)no1	30	22
CC(=O)Nc1ccc(NC(=O)CC2Cn3ncc(-c4ccccc4)c3NC2=O)cc1 (stereo not drawn)	3	3
COC(=O)[C@@H]1C[C@H](NC(=O)c2cnc(Nc3ccccc3)nc2)CN1C	2	12
CN(CC(=O)Nc1ccc(N2CCCC2)cc1)Cc1ccsc1	5	1
COCc1ccccc1CNC(=O)Nc1cc(Cl)ccc1OC	2	1
CCOC(=O)c1c(NC(=O)[C@H](C)OC(C)=O)sc2c1CCN(C)C2	13	7
Nc1nc(Cl)cc(NCc2cccnc2-n2cccn2)n1	9	6
COCC(=O)Nc1c(C)c(C(C)(C)C)nn1-c1ccccc1	-1	0
Cc1c(C(=O)NCc2ccco2)c(C(F)(F)F)nn1C1CCCN(C)C1 (stereo not drawn)	19	9
O=C(NCC1CCCO1)c1cc2n(n1)CCN(Cc1cccc(F)c1)C2=O (stereo not drawn)	15	7
CCC(C)Oc1c(OC)cccc1-c1ncc[nH]1 (stereo not drawn)	26	17
COc1ccc(-c2nc3ccc(Br)cc3c(=O)o2)cc1[N+](=O)[O-]	6	7
Cc1c(C(=O)N2CCC3(CCCO3)CC2)sc2ccccc12	6	4
Cc1cccc(C)c1NC(=O)CN(CC(=O)Nc1c(C)cccc1C)Cc1cn2ccccc2c1C#N	11	0
O=C1Nc2cc(N3CCCC3)ccc2/C1=N/N1CCCCC1	-1	0

Looked up by compound from above:
SMILES	NPYLR7 agonist	NPYLR7 agonist max-min
CN(CC(=O)Nc1ccc(N2CCCC2)cc1)Cc1ccsc1	5	1
CCOC(=O)c1c(NC(=O)[C@H](C)OC(C)=O)sc2c1CCN(C)C2	13	7
COCc1ccccc1CNC(=O)Nc1cc(Cl)ccc1OC	2	1

(further entries)
SMILES	NPYLR7 agonist	NPYLR7 agonist max-min
COCCN1CCCC(O)(CN2CCCN(c3ncccn3)CC2)C1=O (stereo not drawn)	9	4
CCc1ccc(C2C(C(=O)OC(C)C)=C(C)NC3=C2C(=O)CCC3)cc1 (stereo not drawn)	-4	-7
COc1ccccc1-c1nc2ccc(C)cn2c1NC(=O)CCC1CCCC1	-2	4
CNC(=O)CN1CCN(C(=O)c2cn(CCCOC)cc3c(=O)n(-c4ccccc4)nc2-3)CC1	-3	-5
CCC(C)N(Cc1ccc(C)cc1C)CC(O)COc1ccc(OC)cc1 (stereo not drawn)	1	13
CC(C)CCN1CCN(Cc2cc(Cl)ccc2O)CC1CCO (stereo not drawn)	3	-2
C=CCn1c(SC(C)C(=O)N(C)CC(=O)Nc2ccccc2CC)nc2sc(C)c(C)c2c1=O (stereo not drawn)	0	11
Cc1noc(OCc2ccccc2OC(C)C)n1	1	-4
CCCCCCCCC(=O)N1CCc2nc(-c3cccc(F)c3)[nH]c(=O)c2C1	-3	4
CC1CCC(NC(=O)CN2C(=O)NC3(CCCCCC3)C2=O)CC1 (stereo not drawn)	9	3
Cc1nsc(NC(=O)N(C)Cc2cccc(-n3cccn3)c2)n1	0	4
CNC(=S)Nc1ncn(Cc2cccc(F)c2)n1	-1	1
Cc1cc(-c2c(-c3ccccc3)ncn2Cc2n[nH]c(=O)c3ccccc23)n[nH]1	1	-8
CCOC(=O)C1CC(=O)C(C(=O)OCC)CC1=O (stereo not drawn)	9	7
COCCCNC(=O)c1cc(NC(=O)c2cc(C(F)(F)F)cc(C(F)(F)F)c2)ccc1N1CCCCC1	18	18
COCc1nnc(NC(=O)CN2[C@@H]3CC[C@H]2CC(O)C3)s1 (stereo partly drawn)	4	-4
C#CCNC(=O)c1cc(N2CCOCC2)nc2ccccc12	10	5
COc1ccc(S(=O)(=O)Nc2ccc(N(C)C)c(CN(C(=O)c3ccc(F)cc3)C3CC3)c2)cc1	-2	0
CN1CCCC(C#CC(O)(c2ccccc2)c2ccccc2)C1 (stereo not drawn)	-6	-8
C1=CCC(CN2CCN(c3ncnc4ccccc34)CC2)CC1 (stereo not drawn)	2	1
CCOC(=O)[C@@H]1[C@@H](OC(N)=O)C(=O)N(C(C)C)C12CCN(S(=O)(=O)c1cccs1)CC2	23	21
CCc1cc(-c2nccn2CC2(O)CCCCC2)on1	-3	-7
Cc1ccc(C)c(Cn2c(=O)c3c(nc4n(CCCO)c(C)cn34)n(C)c2=O)c1	21	19
CC(C)(CNC1CCCN(c2ccc(C(F)(F)F)cn2)C1)CN1CCOCC1 (stereo not drawn)	-1	-2
CCc1cc(CN(C)CCC(=O)Nc2cccnc2)on1	4	-8
Cc1nn(-c2ccccc2)c(C)c1-c1ccnc(NCc2cnc3ccccn23)n1	7	3
CCOc1ccc(NC(=O)N(CC(=O)Nc2cc(C(C)(C)C)nn2-c2ccc(C)cc2C)Cc2ccco2)cc1	-2	3
CC(Sc1ncc2ccccn12)C(=O)N1c2ccccc2NC(=O)C1(C)C (stereo not drawn)	0	1
COc1ccc(CCNC(=O)c2ccc(Cl)cc2NS(=O)(=O)c2c(C)c(C)cc(C)c2C)cc1	-1	10
O=C(c1cccs1)c1nonc1C(=O)c1cccs1	13	5
COc1ccc(C(=O)N2CCCN(c3c(-c4ccc(OC)c(OC)c4)cnc4ncnn34)CC2)c(OC)c1	4	-1
COc1cccc(CC(C2CCN(C(=O)/C=C/c3cccnc3)CC2)N(C)C(=O)c2ccsc2)c1 (stereo not drawn)	17	5
O=C(C1COc2ccccc2O1)N(Cc1ccccn1)c1nc2ccc(Cl)cc2s1 (stereo not drawn)	4	-8
CCN(CC)C(=O)COC1CN(CCc2ccccc2)C(=O)CN(C(=O)c2ccc3[nH]ccc3c2)C1 (stereo not drawn)	17	10
CC(=O)N1CCN(C(c2ccc(F)cc2)C2Sc3nc(-c4ccco4)nn3C2=O)CC1 (stereo not drawn)	2	-1
O=C(NCCCc1ccccn1)c1ccc(-c2cccnc2)nc1	-2	-9
CCOC(=O)C1CCN(C(c2cccs2)C2Sc3nc(CC)nn3C2=O)CC1 (stereo not drawn)	-1	4
O=C(COc1ccc(Cl)cc1)Nc1ccc(S(=O)(=O)Nc2ncccn2)cc1	1	2
O=C(CCNC(=O)c1ccccc1)NCC(c1cccs1)N1CCOCC1 (stereo not drawn)	2	1
Cc1[nH]ncc1CNC(=O)C(C)(C)c1ccccc1Cl	8	4
COc1ccc(-c2cnn3c(C)c(C(=O)NCC4CCCO4)cnc23)cc1 (stereo not drawn)	13	10
O=C(NC(c1ccc(Br)cc1)C1CCC1)c1ccc(=O)n(-c2ccccc2)n1 (stereo not drawn)	-2	5
CCN1C(=O)CC(N2CCN(S(=O)(=O)c3ccc(C)cc3)CC2)C1=O (stereo not drawn)	-6	-10
Cc1ccc2nc(CSc3nnc(-c4cccs4)o3)cc(=O)n2c1	1	7
CCCCOc1ccc(C(=O)N2CCN(C(=O)CSc3nnc(-c4ccco4)n3-c3cccc(C)c3)CC2C)cc1 (stereo not drawn)	7	2
COCC(C)NS(=O)(=O)c1ccc(NC(=O)c2coc(Br)c2)cc1 (stereo not drawn)	21	18
NC(=O)CSc1nnc(N2CCN(C(=O)Cn3cnc4ccccc43)CC2)s1	1	1
O=C1c2cccc3cccc(c23)N1CN1CCOCC1	-11	-16
CN(C)C(=O)CN(C)S(=O)(=O)c1ccc2c(c1)c1ccccc1n2C	0	-2
O=C(Nc1cccc(-c2ccco2)c1)C1CCN(C(=O)Cc2ccsc2)CC1	10	3
COc1ccc(C2=NN(C)C(=NCc3ccccc3)SC2)cc1	-8	-9
CCCn1nc(C(=O)NC(C)c2ccccc2Cl)ccc1=O (stereo not drawn)	-6	-7
Cc1ccccc1C(=O)N[C@@H]1CCCCC1NC(=O)C1CCCN(C(=O)COc2ccccc2)C1 (stereo partly drawn)	1	13
CCCc1cc(CN(C)Cc2ccc(O)c(C)c2)[nH]n1	2	2
Cc1ccc(C2C3=C(CCCC3=O)OC(=N)C2C#N)cc1 (stereo not drawn)	-15	-21
CS(=O)(=O)NCC1CCN(Cc2cccc3c2OC(F)(F)O3)C1 (stereo not drawn)	9	7
Cc1nn(C)c2ncc(NC(=O)c3cc(S(=O)(=O)N4CCOCC4)ccc3N3CCCCC3)cc12	0	-2
CCc1c(C)sc2[nH]c(=S)n(C)c(=O)c12	-17	-22
Cc1nc(CCNC(C)Cn2cncn2)sc1C (stereo not drawn)	5	2
CCCn1c(-c2sccc2C)n[nH]c1=O	-1	-2

Going on with the list:
SMILES	NPYLR7 agonist	NPYLR7 agonist max-min
COc1cccc(CNCc2ccc(OC)c3ccccc23)c1OC	-5	-5
Cc1cccn2c(=O)c3cc(C#N)c(=N)n(Cc4ccco4)c3nc12	0	3
O=C(c1cncc(Br)c1)N1CC(=O)N2CCc3ccccc3C2C1 (stereo not drawn)	19	28
O=C(O)CN1C(=O)/C(=C\c2cc(Cc3ccccc3)ccc2O)SC1=S	8	8
NS(=O)(=O)c1cc(C(=O)NNS(=O)(=O)c2ccc(C(F)(F)F)cc2)ccc1Cl	3	7
Cc1cc(S(=O)(=O)N2CCOC23CCN(C(=O)C(C)(C)CCl)CC3)ccc1F	-6	2
O=C(c1cnc2cc3c(cc2c1)OC1(CCCC1)O3)c1ccccc1O	2	-2
Cc1ccc(C(=O)NC(C)c2cnn(-c3ccccc3C)c2C)cn1 (stereo not drawn)	12&22	7&11
COc1cccc(CN2CCn3nc(C(=O)Nc4ccc(C)c(C)c4)cc3C2=O)c1	-1	8
O=C(CC1C[C@@H]2CC[C@H]1C2)N1CCc2c(cnn2-c2ccccn2)C1 (stereo partly drawn)	3	31
CN(C)c1ccc(NC(=O)C2CCCC2)cc1CN(Cc1ccc(F)cc1)C(=O)Nc1cccc(F)c1	3	16
Cc1occc1CNC(=O)c1ccc(CN2CCCC2)cc1	-1	-3
CCSC1=N/C(=C\c2cc3c(cc2Cl)OCO3)C(=O)S1	11	8
O=C(NCCn1ncccc1=O)C1CCCCC1	2	2
CC1(C(=O)NS(=O)(=O)c2ccc3c(c2)CCO3)CCN1C(=O)Cc1ccc(-c2ccccc2)cc1 (stereo not drawn)	-1	-2
Cc1nonc1C1CCCN1C(=O)c1cccc2ccnn12 (stereo not drawn)	-5	-7
COc1ccc(-c2nnc(CN3CCCC3c3cccs3)o2)cc1 (stereo not drawn)	5	1
COc1ccccc1CCNC(=O)c1ccccc1N1CCC(NC(=O)c2ccc(F)cc2F)CC1	-3	1
Cc1cccc(-c2nccn2C(CCn2cncn2)c2ccccc2)n1 (stereo not drawn)	-2	-7
COc1ccccc1NC(=O)NCc1nnnn1C1CCCCC1	2	1
COCc1cc(CN2CCCN(c3ccccc3)CC2)ccc1OC	0	0
COc1cccc(OC)c1C(=O)N1CCN(C(C(=O)NCCCN2CCCC2=O)C2CCCC2)CC1 (stereo not drawn)	-2	1
COc1nc(-c2ccc(C(F)(F)F)cc2)n(-c2ccc(NC(=O)c3cccc(Br)c3)cc2)n1	14	13
CN(C)CCN(Cc1ccsc1)C(=O)C1CCCN(C(N)=O)C1 (stereo not drawn)	11	8
COc1ccc(CC(=O)Nc2c(C)nc3ccc(C)cn3c2=O)cc1OC	3	3
COc1ccc(-c2noc(CCc3cn[nH]c3)n2)c(C)c1	22	13
CCCNC(=O)C1(C)CCCN(Cc2cccn2C)C1 (stereo not drawn)	2	-1
O=C(Nc1ncccn1)c1ccccc1Br	-2	-3
CC(C)C[C@H]1CN(C(=O)c2ccn(C)c(=O)c2)CC[C@@]1(C)O	4	1
Cc1ccc(Cc2nc(CSCc3c(C)cc(C)cc3C)cs2)cc1	28	34
CC(C)N1CCC2(CC1)CC(=O)c1cc(-c3ccc(C(=O)N(C)CC4OCCO4)cc3)ccc1O2	-4	11
CC(C)c1ccc2c(c1)c1c3n2CCN(CC(N)=O)C3CCC1 (stereo not drawn)	14	12

Structural class, those above containing a thiophene ring, fused or not (15)
SMILES	NPYLR7 agonist	NPYLR7 agonist max-min
CN(CC(=O)Nc1ccc(N2CCCC2)cc1)Cc1ccsc1	5	1
CCOC(=O)c1c(NC(=O)[C@H](C)OC(C)=O)sc2c1CCN(C)C2	13	7
Cc1c(C(=O)N2CCC3(CCCO3)CC2)sc2ccccc12	6	4
C=CCn1c(SC(C)C(=O)N(C)CC(=O)Nc2ccccc2CC)nc2sc(C)c(C)c2c1=O (stereo not drawn)	0	11
CCOC(=O)[C@@H]1[C@@H](OC(N)=O)C(=O)N(C(C)C)C12CCN(S(=O)(=O)c1cccs1)CC2	23	21
O=C(c1cccs1)c1nonc1C(=O)c1cccs1	13	5
COc1cccc(CC(C2CCN(C(=O)/C=C/c3cccnc3)CC2)N(C)C(=O)c2ccsc2)c1 (stereo not drawn)	17	5
CCOC(=O)C1CCN(C(c2cccs2)C2Sc3nc(CC)nn3C2=O)CC1 (stereo not drawn)	-1	4
O=C(CCNC(=O)c1ccccc1)NCC(c1cccs1)N1CCOCC1 (stereo not drawn)	2	1
Cc1ccc2nc(CSc3nnc(-c4cccs4)o3)cc(=O)n2c1	1	7
O=C(Nc1cccc(-c2ccco2)c1)C1CCN(C(=O)Cc2ccsc2)CC1	10	3
CCc1c(C)sc2[nH]c(=S)n(C)c(=O)c12	-17	-22
CCCn1c(-c2sccc2C)n[nH]c1=O	-1	-2
COc1ccc(-c2nnc(CN3CCCC3c3cccs3)o2)cc1 (stereo not drawn)	5	1
CN(C)CCN(Cc1ccsc1)C(=O)C1CCCN(C(N)=O)C1 (stereo not drawn)	11	8

Not all compounds are listed; count on the stated rates, not on these rows.
